FGF22 binding – FGF22 (human) thermal shift binding | recombinant FGF22 thermal shift, SYPRO orange fluorescence; percent of sucrose octasulfate shift, DMSO zero | calls only at 9.99 µM | 340,000 compounds, 1.5% hits;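 active means melting point raised past a set limit in the mean and every replicate; three in four hits are not shown here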
Target sequence (Q9HCT0 whole entry, looked up): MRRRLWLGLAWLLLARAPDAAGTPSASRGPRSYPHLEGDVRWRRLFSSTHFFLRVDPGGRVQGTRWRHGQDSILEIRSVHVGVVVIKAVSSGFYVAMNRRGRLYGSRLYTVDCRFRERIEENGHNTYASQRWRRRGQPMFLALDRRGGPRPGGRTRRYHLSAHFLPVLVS
Ecoli rRNA inh – selective bacterial rRNA inhibition in E. coli | GFP signal change (wild-type ribosome), % (no concentration beside the values) | E. coli WT GFP vs humanized-ribosome RFP mutants, fluorescence, 24 h; active compounds read low; DMSO median 0, no signal -100 | 350,000 compounds, 1.6% hits;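 active means significant combined selectivity score with lowered wild-type GFP, culture density cut under 30%, mutant RFP and density less affected; inactive means any of these conditions unmet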; further: one replicate is shown; some compounds called inactive have numbers as strong as hits
AF4-AF9 inh – inhibitors of human MLL-AF4/AF9 interaction. AlphaScreen, biotin-AF4 peptide binding to FLAG-AF9. inhibition, % at 10 µM. 350,000 compounds, 0.47% hits. AID 651704;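 active means every replicate reaching a set inhibition limit, whatever the replicate mean, cut at about 25% in these data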;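 further: 0% = plate neutral control median and 100% = total signal loss; the record names both 10 and 1 µM as test concentration; the first replicate is given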
Target sequence (P42568 whole entry, looked up): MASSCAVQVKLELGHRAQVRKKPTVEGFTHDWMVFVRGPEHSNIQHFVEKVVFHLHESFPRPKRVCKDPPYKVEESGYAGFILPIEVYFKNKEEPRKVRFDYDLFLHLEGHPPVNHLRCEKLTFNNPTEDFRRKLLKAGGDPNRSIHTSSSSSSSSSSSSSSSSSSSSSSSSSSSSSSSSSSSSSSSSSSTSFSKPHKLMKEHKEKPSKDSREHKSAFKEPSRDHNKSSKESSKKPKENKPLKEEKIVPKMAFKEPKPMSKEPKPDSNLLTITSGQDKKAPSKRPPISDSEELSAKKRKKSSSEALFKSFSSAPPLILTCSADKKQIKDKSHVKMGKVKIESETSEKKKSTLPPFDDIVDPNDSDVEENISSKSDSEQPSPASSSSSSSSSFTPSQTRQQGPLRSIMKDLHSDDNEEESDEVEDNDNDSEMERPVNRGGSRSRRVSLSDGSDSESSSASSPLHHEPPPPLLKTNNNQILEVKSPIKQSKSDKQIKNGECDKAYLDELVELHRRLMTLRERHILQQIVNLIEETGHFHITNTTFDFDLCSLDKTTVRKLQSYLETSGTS
Ecoli rRNA inh OD600 – also measured in Ecoli rRNA inh; calls as there; OD600 change, %; measured here: OD600 growth;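 optical density of the mix in the first replicate; 0 = DMSO median and -100 = no signal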
Ecoli rRNA inh RFP – also measured in Ecoli rRNA inh; calls as there; RFP signal change, %; measured here: RFP humanized mutant strains;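 first replicate; 0 = DMSO median and -100 = no signal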
* hit, by the source's call; i = inactive; nt = no result given; & = joins results of further samples.

# | molecule | AF4-AF9 inh | Ecoli rRNA inh RFP | Ecoli rRNA inh OD600 | FGF22 binding | Ecoli rRNA inh
1 | c1ccc(OCCNc2ccn3nc(-c4cccs4)cc3n2)cc1 | -7.2 | -4.9 | -68.8 | i | -32.5
2 | C[C@@H]1CCCCO[C@H](CN(C)S(C)(=O)=O)[C@@H](C)CN([C@H](C)CO)C(=O)c2cc(NC(=O)Nc3ccc(C(F)(F)F)cc3)ccc2O1 | 2.8 | 3.3 | -4.2 | i | -0.3
3 | CCC(=O)N1[C@@H]2c3ccc(-c4ccncc4)c(=O)n3C[C@@H]2[C@@H](CO)[C@@H]1C(=O)Nc1ccccc1 | -0.6 | 1.9 | 5.7 | i | -0.3
4 | C[C@H]1CN([C@@H](C)CO)C(=O)Cc2cc(NC(=O)C3CCCCC3)ccc2O[C@@H]1CN(C)Cc1ccc(C(=O)O)cc1 | -0.9 | -4.4 | 10.7 | i | -0.2
5 | C[C@H]1CN([C@@H](C)CO)C(=O)c2cc(NC(=O)Nc3ccccc3)ccc2O[C@@H]1CN(C)S(=O)(=O)c1ccc(Cl)cc1 | 1.2 | 5.6 | -5.0 | i | -1.5
6 | COc1ccc(S(=O)(=O)Nc2ccc3c(c2)C(=O)N([C@@H](C)CO)C[C@@H](C)[C@H](CN(C)S(=O)(=O)c2cn(C)cn2)OCCCC[C@@H](C)O3)cc1 | -1.1 | 1.6 | 0.0 | i | -1.6
7 | CC(C)C[C@H]1CN([C@@H](CC(C)C)CN2CCCC2CN2C(=S)NC[C@@H]2Cc2ccccc2)C(=S)N1CCc1ccccc1 (some centres undefined) | -0.9 | 15.8 | 24.8 | i | 31.5
8 | CCC(=O)N1[C@H](CO)[C@@H](c2ccccc2)[C@H]1CNC(=O)CN1CCOCC1 | -1.4 | -1.2 | 6.0 | i | 2.2
9 | C[C@H](CO)N1C[C@H](C)[C@@H](CN(C)S(=O)(=O)c2cccs2)Oc2ccc(NC(=O)Nc3ccc(F)cc3)cc2CC1=O | 2.0 | 2.2 | -9.4 | i | -4.8
10 | c1cn2c(-c3ccc(N4CCOCC4)cc3)cncc2n1 | 0.0 | -0.2 | 9.4 | i | 7.4
11 | Cn1cnc(S(=O)(=O)N2C[C@@H](O)COC[C@H]3O[C@H](CC(=O)NCc4cc(F)cc(F)c4)CC[C@@H]32)c1 | 0.9 | -2.9 | 0.8 | i | 4.5
12 | O=S(=O)(N[C@@H]1CC[C@H](CCn2cc(C3(O)CCCC3)nn2)O[C@@H]1CO)c1ccccc1 | -2.2 | -0.6 | 1.0 | i | -0.2
13 | CN1CCN(C(=O)C[C@@H]2C[C@@H]3c4cc(NC(=O)Nc5ccc(C(F)(F)F)cc5)ccc4O[C@@H]3[C@H](CO)O2)CC1 | 11.6 | 2.9 | -25.9 | i | -14.2
14 | C[C@H]1CN([C@@H](C)CO)C(=O)c2cccc(NC(=O)NC3CCCCC3)c2O[C@@H]1CN(C)S(=O)(=O)c1cn(C)cn1 | -8.9 | -0.5 | 2.5 | i | 1.9
15 | CC(=O)N(C)C[C@H]1Oc2ncc(C#C[C@@H](C)O)cc2C(=O)N([C@H](C)CO)C[C@H]1C | -5.8 | -2.8 | 0.3 | i | -0.2
16 | C[C@H](CO)N1C[C@H](C)[C@@H](CN(C)CC2CC2)Oc2c(NC(=O)C3CCCCC3)cccc2C1=O | 0.5 | 0.5 | -12.2 | i | -9.7

Looked up by structure from the entries so far (3):
# | molecule | AF4-AF9 inh | Ecoli rRNA inh RFP | Ecoli rRNA inh OD600 | FGF22 binding | Ecoli rRNA inh
12 | O=S(=O)(N[C@@H]1CC[C@H](CCn2cc(C3(O)CCCC3)nn2)O[C@@H]1CO)c1ccccc1 | -2.2 | -0.6 | 1.0 | i | -0.2
11 | Cn1cnc(S(=O)(=O)N2C[C@@H](O)COC[C@H]3O[C@H](CC(=O)NCc4cc(F)cc(F)c4)CC[C@@H]32)c1 | 0.9 | -2.9 | 0.8 | i | 4.5
15 | CC(=O)N(C)C[C@H]1Oc2ncc(C#C[C@@H](C)O)cc2C(=O)N([C@H](C)CO)C[C@H]1C | -5.8 | -2.8 | 0.3 | i | -0.2

Next section.
# | molecule | AF4-AF9 inh | Ecoli rRNA inh RFP | Ecoli rRNA inh OD600 | FGF22 binding | Ecoli rRNA inh
17 | C[C@H]1CN([C@@H](C)CO)C(=O)Cc2cc(NC(=O)CCN3CCOCC3)ccc2O[C@H]1CN(C)C(=O)Nc1ccc(C(F)(F)F)cc1 | 1.1 | -0.3 | 5.5 | i | 1.7
18 | C[C@H](CO)N1C[C@H](C)[C@@H](CN(C)CC2CCCCC2)Oc2ccc(N(C)C)cc2C1=O | 2.4 | -4.2 | 1.0 | i | 2.2
19 | COC(=O)N1CCC2CC1c1c(Cl)cccc12 (centres undefined) | 1.0 | 2.5 | 5.5 | i | 5.0
20 | COC(=O)[C@@H]1[C@@H](CO)[C@@H]2Cn3c(ccc(C4=CCCCC4)c3=O)[C@@H]2N1C(=O)c1ccccc1F | -0.7 | 0.1 | -1.2 | i | -2.2
21 | C[C@H]1CN([C@@H](C)CO)C(=O)c2cccc(NS(=O)(=O)c3cccs3)c2O[C@H]1CN(C)C(=O)Nc1ccc(C(F)(F)F)cc1 | 1.1 | 2.6 | -2.1 | i | -4.5
22 | C[C@H](O)C#Cc1ccc2c(c1)O[C@@H](CN(C)Cc1ccccn1)[C@@H](C)CN([C@@H](C)CO)S2(=O)=O | -0.7 | 1.0 | 4.0 | i | 0.7
23 | COc1cccc(-c2ccc3c(c2)[C@H]2[C@H](CCN2Cc2ccccc2OC)[C@H](CO)N3)c1 | 6.1 | 32.6 | -51.0 | i | -29.4
24 | COC[C@H]1CCCN1[C@@H]1CS(=O)(=O)N[C@H]1COCc1ccccc1 | -2.6 | -0.4 | 4.2 | i | -1.7
25 | COCC(=O)Nc1ccc2c(c1)OC[C@H](C)N(C(=O)c1ccccc1F)C[C@H](C)[C@H](OC)CN(C)C2=O | 1.0 | -2.7 | -6.4 | i | -0.8
26 | CCC(=O)N[C@@H]1C=C[C@@H](CC(=O)NCCN2CCCCC2)O[C@H]1CO | 0.1 | -1.3 | -3.3 | i | 2.2
27 | CO[C@H]1CN(C)C(=O)c2ccc(NS(=O)(=O)c3ccc(C)cc3)cc2OC[C@H](C)N(Cc2nccs2)C[C@H]1C | 14.1 | 3.3 | -5.7 | i | -5.0
28 | Cc1nn(C)cc1NC(=O)C[C@@H]1CC[C@H]2[C@H](COc3ccc(NC(=O)Nc4cccc(Cl)c4)cc3C(=O)N2C)O1 | 2.2 | 9.0 | -12.1 | i | -10.4
29 | C[C@H]1CN([C@@H](C)CO)C(=O)CCCn2cc(nn2)CO[C@H]1CN(C)C(=O)Nc1ccnc(N2CCOCC2)c1 | 1.0 | 0.3 | 3.5 | i | 0.7
30 | COCC#Cc1ccc2c(c1)O[C@@H](CN(C)Cc1cccnc1)[C@@H](C)CN([C@@H](C)CO)S2(=O)=O | 6.9 | 1.5 | 3.6 | i | 7.0
31 | CN(C)CC(=O)Nc1ccc2c(c1)[C@H]1C[C@@H](CC(=O)NCC3CC3)O[C@@H](CO)[C@H]1O2 | -2.4 | 0.1 | 6.8 | i | 5.0
32 | CO[C@H]1CN(C)C(=O)c2cc(NC(C)=O)ccc2OC[C@@H](C)N(Cc2nccs2)C[C@@H]1C | -11.2 | 0.3 | 1.9 | i | 2.5
33 | C[C@H]1CN([C@@H](C)CO)C(=O)c2c(c3ccccc3n2C)-c2ccccc2CO[C@H]1CN(C)C(=O)c1ccc(F)cc1 | 0.0 | 9.4 | -1.5 | i | -4.3
34 | COc1ccc(S(=O)(=O)N(C)C[C@@H]2OCCCC[C@H](C)Oc3ccc(NS(=O)(=O)c4cccs4)cc3C(=O)N([C@@H](C)CO)C[C@H]2C)cc1 | 2.9 | 0.4 | 0.0 | i | -0.2
35 | Cc1noc(C)c1S(=O)(=O)N(C)C[C@@H]1Oc2c(NC(=O)c3ccc(-c4nccs4)cc3)cccc2C(=O)N([C@@H](C)CO)C[C@H]1C | -11.2 | -4.1 | -2.2 | i | -1.3
36 | C[C@@H]1CN([C@H](C)CO)C(=O)c2c(c3ccccc3n2C)-c2ccccc2CO[C@H]1CN(C)Cc1ccc(O)cc1 | 6.0 | 4.5 | -2.6 | i | 1.8
37 | COCC(=O)N1C[C@H](C)[C@@H](OC)CN(C)C(=O)c2cc(NC(=O)Nc3cccc(F)c3)ccc2OC[C@H]1C | -0.4 | -0.5 | -0.8 | i | -0.5
38 | C[C@H](O)C#Cc1ccc2c(c1)O[C@H](CN(C)CC1CCOCC1)[C@@H](C)CN([C@@H](C)CO)S2(=O)=O | -3.5 | -2.8 | -4.2 | i | -2.5
39 | O=C(C[C@@H]1C=C[C@H](NC(=O)Cc2ccccn2)[C@@H](CO)O1)NCCc1ccccc1 | -5.4 | 0.3&2.3 | -1.2&12.1 | nt | 1.9&6.1
40 | O=S(=O)(c1ccccc1)N1CCCCN2[C@@H](CO)[C@@H](c3ccc(C#Cc4cccnc4)cc3)[C@@H]2C1 | 1.7 | 12.6 | -39.1 | i | -4.6
41 | Cc1ccc(S(=O)(=O)Nc2cccc3c2O[C@@H](CN(C)Cc2ccc4c(c2)OCO4)[C@@H](C)CN([C@@H](C)CO)C3=O)cc1 | 1.1 | 3.9 | -6.7 | i | -5.0
42 | CCCCC[C@@H]1CCCCC[C@@H](O)C[C@@H](O)[C@H](O)/C=C/C(=O)O1 | -3.0 | -7.4 | -41.0 | i | -22.5
43 | CN1c2ccc(Br)cc2[C@H]2[C@H](CCN2C(=O)Nc2ccc(F)cc2)[C@H]1CO | 1.8 | 0.9 | -34.8 | i | -9.6
44 | Cc1ccc(CN2CCC(C)(Oc3ccc(Cl)cc3)C2)cc1 (centres undefined) | 1.7 | 0.0 | -16.6 | i | -15.1
45 | C[C@@H]1CN([C@H](C)CO)C(=O)c2cc(C#CCc3ccccc3)cnc2O[C@H]1CN(C)Cc1cccc(F)c1 | 6.7 | 20.0 | -36.8 | i | -20.6
46 | CCCC#Cc1ccc([C@@H]2[C@@H](CO)N3CCCCN(Cc4cccnc4)C[C@H]23)cc1 | -4.2 | -2.2 | 10.1 | i | 1.2
47 | CCC(=O)N1C[C@@H](C)[C@@H](OC)CN(C)C(=O)c2cc(NC(=O)COC)ccc2OC[C@@H]1C | -0.7 | -0.3 | -0.9 | i | 1.6
48 | C/C=C/c1ccc2c(c1)O[C@H](CN(C)Cc1ccc(F)cc1)[C@H](C)CN([C@H](C)CO)S2(=O)=O | 18.2 | 10.0 | -61.2 | i | -32.4
49 | CO[C@H]1CN(C)C(=O)c2cc(NC(=O)C3CCCCC3)ccc2OC[C@@H](C)N(Cc2nccs2)C[C@@H]1C | 2.4 | 2.1 | -7.2 | i | -3.3
50 | Cn1c2ccccc2c(=O)c2ccc(NCc3ccc4c(c3)OCO4)cc21 | -4.5 | -9.7 | -28.3 | i | -2.3
51 | COc1ccc(S(=O)(=O)N(C)C[C@H]2OCc3ccccc3-c3c(n(C)c4ccccc34)C(=O)N([C@H](C)CO)C[C@H]2C)cc1 | 1.2 | -4.9 | -0.4 | i | 1.5
52 | O=C(Nc1ccccc1)N[C@@H]1CC[C@@H](CCNS(=O)(=O)c2cccc(F)c2)O[C@H]1CO | -0.3 | 2.5 | 3.4 | i | -2.5
53 | C[C@H](CO)N1C[C@H](C)[C@H](CN(C)S(C)(=O)=O)Oc2ncc(C#CC3CCCCC3)cc2C1=O | -2.4 | 1.2 | -15.3 | i | -1.5
54 | C[C@@H]1CN([C@H](C)CO)C(=O)c2cc(NS(C)(=O)=O)ccc2O[C@@H](C)CCCCO[C@@H]1CN(C)C | -16.2 | -3.2 | 8.7 | i | 3.8
55 | Cc1noc(C)c1S(=O)(=O)Nc1ccc2c(c1)C(=O)N([C@H](C)CO)C[C@@H](C)[C@@H](CN(C)CC1CCCCC1)OCCCC[C@@H](C)O2 | 3.8 | 3.6 | -3.8 | i | 0.5
56 | COc1ccc2c3c(n(C)c2c1)[C@@H](CO)N(C(=O)Nc1ccccc1F)CC31CCN(C)CC1 | 12.0 | -0.4 | 5.5 | i | 6.0
57 | COc1ccc(-c2csc(C(NC(C)=O)c3cccc(F)c3)n2)cn1 (centres undefined) | -2.9 | 0.9 | 8.7 | i | 5.5
58 | COc1ccc(S(=O)(=O)N(C)C[C@@H]2Oc3c(cccc3N(C)C)C(=O)N([C@H](C)CO)C[C@H]2C)cc1 | -1.0 | 1.2 | -19.4 | i | -6.0
59 | O=C(C1CCCC1)N1[C@@H]2CN(S(=O)(=O)c3ccc(F)cc3)c3ccccc3[C@@H]2[C@@H]1CO | 1.4 | -0.1 | -3.6 | i | -3.5
60 | CNC(=O)C[C@H]1CC[C@@H]2[C@H](COc3ccc(NC(=O)c4cc(F)cc(F)c4)cc3C(=O)N2C)O1 | -2.8 | 0.4 | 8.7 | i | 3.3
61 | C[C@H]1CN([C@@H](C)CO)C(=O)Cc2cc(NC(=O)c3ccncc3)ccc2O[C@@H]1CN(C)CC1CC1 | -19.5 | -2.7 | 11.4 | i | 0.8
62 | C/C=C/c1ccc2c(c1)O[C@H](CN(C)C(=O)c1ccc(F)cc1)[C@H](C)CN([C@H](C)CO)S2(=O)=O | 4.3 | 7.4 | -21.6 | i | -10.8
63 | C[C@@H]1CN([C@@H](C)CO)C(=O)c2cc(C#CC3CC3)cnc2O[C@@H]1CN(C)Cc1ccncc1 | 0.3 | -1.5 | 3.6 | i | -1.5

Assay outcomes: PubChem, Broad Institute

These rows are one share of the data (hit frequency here may not be typical).
